# Kir21 inh = inhibitors of mouse Kir2.1 inward-rectifier potassium channel. Inward rectifier potassium channel 2 (Mus musculus), P35561. HEK293-Kir2.1, FluxOR thallium flux fluorescence; hits give low values. B-score at 10 µM. 310,000 tested, 0.85% active. AID 1672, 2009;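 active = fluorescence ratio B-score at or below minus 3 SD of library scores, with starting-brightness B-score within 2 SD, cut at about -4.2 in these data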;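 note: channel flux triggered by added potassium and thallium sulfate stimulus; B-score of peak minus minimum fluorescence over baseline after thallium stimulus; more negative B-score means stronger Kir2.1 block with less thallium influx; some compounds called inactive have numbers as strong as hits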
# Target sequence (P35561 whole entry, looked up): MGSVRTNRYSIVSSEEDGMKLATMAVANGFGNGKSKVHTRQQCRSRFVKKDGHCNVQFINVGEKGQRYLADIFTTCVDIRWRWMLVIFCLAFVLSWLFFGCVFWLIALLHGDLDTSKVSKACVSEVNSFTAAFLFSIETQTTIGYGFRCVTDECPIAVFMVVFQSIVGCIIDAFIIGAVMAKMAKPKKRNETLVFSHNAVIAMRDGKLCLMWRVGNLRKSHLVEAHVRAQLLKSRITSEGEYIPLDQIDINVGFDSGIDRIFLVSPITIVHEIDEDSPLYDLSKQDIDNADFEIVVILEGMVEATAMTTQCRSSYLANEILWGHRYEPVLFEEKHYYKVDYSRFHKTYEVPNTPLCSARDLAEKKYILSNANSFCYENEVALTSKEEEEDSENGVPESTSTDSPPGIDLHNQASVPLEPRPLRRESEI
# * hit, by the source's call.
Kir21 inh,canonical_smiles
1.4,C=CCNC(=O)Cn1c(=O)c2c(ncn2CCC(C)C)n(Cc2ccccc2)c1=O
0.4,Cc1cc(C)n2nc(C(=O)NCc3ccccc3)cc2n1
0.16,CCN1C(=O)C(CC(=O)Nc2ccc(F)cc2)N(Cc2ccco2)C1=S (stereo unspecified)
1.1,CCCC(=O)c1c[nH]c(C(=O)NCc2cccnc2)c1
0.12,Cc1c(C(=O)Nc2cc(F)ccc2F)sc2nc3n(c(=O)c12)CCCCC3
-3.4,COc1cc(/C=C(\C#N)c2nc3ccccc3[nH]2)ccc1OC(=O)c1ccco1
0.58,CCOC(=O)C1CCN(C(=O)c2cccc(NS(=O)(=O)c3ccc(F)c(F)c3)c2)CC1
-0.84,O=C(O)c1ccc(/C=N/NC(=O)C(O)(c2ccccc2)c2ccccc2)cc1
0.19,O=C(Nc1ccc(F)cc1F)c1csc(-c2ccccc2)n1
2.9,COc1ccc(-n2nc(C(=O)NCC(=O)NCCCN3CCOCC3)c3ccccc3c2=O)cc1OC
1.4,CC(=O)Nc1ccc(S(=O)(=O)NCCC(=O)Nc2ccc(C)c(Cl)c2)cc1
0.95,CCOc1ccc(NC(=O)CSc2ncc(-c3ccc(F)cc3)n2Cc2ccco2)cc1
-1.2,Cc1ccc(NC2=NCC(=O)N2Cc2ccccc2)c(C)c1
0.25,Cc1cc(/C=N/NC(=O)Cn2c3ccccc3c(=O)c3ccccc32)c(C)n1-c1ccc(Cl)cc1
0.54,CCOC(=O)c1c(C)n(-c2ccccc2)c2ccc(O)cc12
-0.6,CCCc1nc(C)cc(N2CCN(c3ccccc3)CC2)n1
-0.04,CCOC(=O)c1ccc(NC(=O)CN(c2ccc(C)cc2)S(=O)(=O)c2c(C)nn(C)c2C)cc1
1.3,CCN1CCCC1CNCc1cc(OC)c(OC)c(OC)c1 (stereo unspecified)
-0.41,c1cncc(-c2nn3c(Cn4cnc5ccccc54)nnc3s2)c1
1,CC(=O)NC1=NN(C(C)=O)C(c2ccc(F)cc2)S1 (stereo unspecified)

# Next compounds:
Kir21 inh,canonical_smiles
-0.43,CCCCC(c1nnnn1CS(=O)(=O)c1ccc(C)cc1)N1CCN(c2ccccc2)CC1 (stereo unspecified)
1.2,O=C(CN1C(=O)C2C3CCC(C3)C2C1=O)Oc1ccc2ccccc2c1 (stereo unspecified)
1.3,Cc1cc2ncn(/N=C/c3cccnc3)c2cc1C
0.35,Cc1ccc(N(C(=O)c2csnn2)C(C(=O)NC2CCCC2)c2ccccn2)c(C)c1 (stereo unspecified)
0,Cc1ccc(S(=O)(=O)N2CCOC2CNC(=O)C(=O)NCc2ccco2)cc1 (stereo unspecified)
1.2,CCCCn1c(SCC(=O)NCc2ccco2)nnc1-c1ccoc1C
0.83,COc1ccc(/C=C2\SC(=O)N(CCC(=O)N3CCCCC3)C2=O)cc1OC
2.4,Cc1cccc(C2c3[nH]c4ccccc4c3CCN2C(=O)c2nn(C)c(=O)c3ccccc23)n1 (stereo unspecified)
2.3,CCc1c(C(=O)NCCc2ccc(OC)c(OC)c2)[nH]c(C)c1C(C)=O
0.63,CC(=O)c1ccc(N=C2NC(=O)C(CO)(CO)S2)cc1
-0.74,COc1ccc(CCNC(=O)CCOc2ccc(C)cc2)cc1OC
-0.64,CCOc1ccccc1-n1c(SCC(N)=O)nnc1-c1ccco1
0,CCCCCc1c(C)nc(Nc2ccccc2)[nH]c1=O
-0.84,O=C(NCc1ccco1)c1ccc2c(=O)n(CCC3=CCCCC3)c(=O)[nH]c2c1
0.85,Cc1sc2nc(C(C)Nc3ccccc3N3CCOCC3)[nH]c(=O)c2c1C (stereo unspecified)
1,O=C(Nc1ncc(Cc2ccccc2)s1)C1=NCCN1
-0.24,NC(=O)C1CCCNC1 (stereo unspecified)
-0.08,Cc1cc(C)cc(OC(=O)C23CCC(C)(C(=O)O2)C3(C)C)c1 (stereo unspecified)
-0.22,CC(=O)c1cnc(-c2ccccn2)s1
1.3,CCN(CC(=O)N1CCc2ccccc2C1)S(=O)(=O)c1ccc2ccccc2c1

# Going on with the list:
Kir21 inh,canonical_smiles
0.66,O=C(Nc1ccc(N2CCOCC2)nc1)c1ccc(Cl)cc1
0.06,Cc1ccc(NC(=O)C2CC(=O)OC23CCOC(C)(C)C3)cc1 (stereo unspecified)
2.3,O=C(COc1ccccc1)Nc1nnc(-c2ccc(Cl)s2)o1
-1.1,O=C(c1ccco1)N1CCN(C(=O)c2nn3cccnc3c2Cl)CC1
0.62,COc1ccc(CSCC(=O)N/N=C/c2ccc(OCC(=O)N3CCCCC3)cc2)cc1
-1.1,c1csc(C2=NNC(=NC3CCCCC3)SC2)c1
-0.14,Cn1c(=O)oc2cc(S(=O)(=O)NCCC(=O)Nc3ccc4c(c3)OCCO4)ccc21
1.6,CCn1cc(CN2CCC(n3nccc3NC(=O)c3cccc(F)c3)CC2)cn1
-0.76,N#CCSc1nc2ccccc2c(=O)n1C1CCCCC1
1.7,CC1CCCC(NC(=O)C2CCN(S(=O)(=O)N3CCCCCC3)CC2)C1C (stereo unspecified)
-0.12,CCOc1ccc(NC(=O)CCc2nnc3ccc(N4CCC(C)CC4)nn23)cc1
-0.38,CCO[C@H]1OC(C(=O)N2CCN(Cc3ccccc3)CC2)=C[C@@H](C)[C@@H]1CCCO
0.38,CC(=O)Nc1c(S(=O)(=O)c2ccccc2)c2nc3ccccc3nc2n1Cc1ccccc1
-0.63,O=C(COC(=O)c1cccnc1Cl)c1ccccc1
0.47,Cc1cc(C)cc(N2Cc3ccccc3C2)c1
0.33,O=C(CSc1ccc([N+](=O)[O-])cn1)Nc1ccc(N2CCOCC2)cc1
0.04,COCCCNC(=O)c1ccccc1SC
0.04,CC(=O)Oc1cccc(C(=O)Nc2ccccc2NC(=O)c2cccc(OC(C)=O)c2)c1
1.6,Cc1cc([N+](=O)[O-])nn1CCC(=O)Nc1nccs1
0.37,Cc1nc(N2CCN(Cc3ccccc3)CC2)[nH]c(=O)c1C

# Carrying on.
Kir21 inh,canonical_smiles
1,CCc1ccc(C(=O)NNC(=O)c2ccc(=O)n(C)n2)cc1
-0.02,COc1ccc(NC(=O)CNC(=O)c2ccco2)cc1
0.13,CC(=O)Nc1ccc(S(=O)(=O)Nc2nc3n(n2)C(c2ccccc2)CC(=O)N3)cc1 (stereo unspecified)
-0.05,Cc1cccc(NC(=S)N/N=C/c2cccc([N+](=O)[O-])c2)c1
-1.2,O=C(CCCn1c(=O)c2ccccc2n(CC(=O)N2CCN(c3ccccc3)CC2)c1=O)NCc1ccco1
1.1,CCOCCCNS(=O)(=O)c1ccc2c(c1)CCN2C(C)=O
-0.9,O=C1c2ccccc2C(=O)N1c1cccc2ccccc12
0.11,CSc1ccc(C(=S)N2CCN(C(c3ccccc3)c3ccccc3)CC2)cc1
0.29,O=C(NC1CCN(Cc2ccccc2)CC1)c1ccc(Cn2c(=S)[nH]c3ccc(N4CCOCC4)cc3c2=O)cc1
0.24,CN(C(=O)c1ccc2c(=O)n3c(nc2c1)CCCCC3)c1ccccc1Cl
2,COc1cccc(-c2coc3cc4oc(=O)c(CCC(=O)O)c(C)c4cc23)c1
1,CC(NS(=O)(=O)c1ccc([N+](=O)[O-])cc1)C(=O)NN (stereo unspecified)
-1.6,COc1ccc(NC(=O)COc2coc(CN3CCc4ccccc4C3)cc2=O)cc1
0.68,O=C1OCCC1Sc1nnc(-c2ccc(Br)cc2)o1 (stereo unspecified)
-0.91,CSCC(=O)N1CCC(n2nccc2NC(=O)CCCc2ccccc2)CC1
-0.01,COC(=O)C(NC(=O)c1ccccc1)(Nc1nccs1)C(F)(F)F (stereo unspecified)
0,Cc1nc2cc(NC(=O)COc3ccc(C#N)cc3)ccc2n1-c1ccccc1
-0.01,COCCCNS(=O)(=O)c1ccc(Cl)c(C(F)(F)F)c1
-1.1,CCCNC(=O)COC(=O)c1cc2c(=O)n3ccccc3nc2s1
-0.1,CCN(CC)C(=O)COc1ccc(/C(C)=N/NC(=O)c2ccccc2-n2cccc2)cc1

# Some of these compounds in order of their number in Kir21 inh, low to high:
mol,Kir21 inh
COc1ccc(NC(=O)COc2coc(CN3CCc4ccccc4C3)cc2=O)cc1,-1.6
CSc1ccc(C(=S)N2CCN(C(c3ccccc3)c3ccccc3)CC2)cc1,0.11
O=C(NC1CCN(Cc2ccccc2)CC1)c1ccc(Cn2c(=S)[nH]c3ccc(N4CCOCC4)cc3c2=O)cc1,0.29

# (list continues)
Kir21 inh,canonical_smiles
-0.62,O=C(CCC(=O)c1ccccc1)NCc1ccccc1
1.9,CCc1ccccc1NC(=O)CCOc1ccccc1
1,Cc1cccc(N2CCN(C(=O)c3cccc(N4CCCC4=O)c3)C(C)C2)c1 (stereo unspecified)
-0.97,CCOC(=O)C(NCCc1ccccc1F)(NC(C)=O)C(F)(F)F (stereo unspecified)
-1.6,O=C(CSc1cn[nH]n1)Nc1nc2ccccc2s1
-2,COc1ccc(CCNC(=O)CCc2cc(OC)c(OC)c(OC)c2)cc1
-0.1,CC(=O)c1ccc(NC(=O)N2C3CCC2CC(O)(c2cccnc2)C3)cc1 (stereo unspecified)
1.3,CC1c2cc3c(cc2CCN1CC(=O)Nc1ccc(S(=O)(=O)N2CCCC2)cc1)OCCCO3 (stereo unspecified)
0.25,Cc1c(NS(=O)(=O)c2cc([N+](=O)[O-])ccc2Cl)c(=O)n(-c2ccccc2)n1C
-0.48,O=C(CSc1nnc(CNC(=O)c2ccccc2F)o1)NCCc1ccccc1
3.5,CN(C)c1ccc(NC(=O)CN2CCC(N3CCCCC3)CC2)cc1
-0.96,O=C(Cc1ccccc1)N1CCN(C(=O)c2ccc([N+](=O)[O-])cc2)CC1
-0.64,O=C(C1=C[C@@H](c2ccccc2)C[C@@H](OCCCCO)O1)N1CCN(Cc2ccc3c(c2)OCO3)CC1
0.02,CCOC(=O)N1CCN(C(=O)/C(=C/c2ccc(OC)cc2)NC(=O)c2ccccc2)CC1
2.4,Cc1ccc(NC(=O)NNC(=O)Cn2nc(-c3ccccc3)c(-c3ccccc3)c(C#N)c2=O)cc1
0.72,Cc1ccc(SCCC(=O)OCn2nnc3ccccc3c2=O)cc1
-1.6,O=C1CC(C(=O)NCc2ccccc2)C2(CCCC2)O1 (stereo unspecified)
-1.3,Cc1ccc2oc(C(=O)Nc3nnc(CC(C)C)s3)c(C)c2c1
0.16,O=C(COC(=O)/C=C/C(=O)N1CCN(c2ccccc2)CC1)NCc1ccc(F)cc1
0.65,CCOc1ccc(S(=O)(=O)N2CCCCC2)cc1NC(=O)C1=COCCO1

# Some of the entries so far, as comma-separated lines.
Compound,Kir21 inh
O=C(C1=C[C@@H](c2ccccc2)C[C@@H](OCCCCO)O1)N1CCN(Cc2ccc3c(c2)OCO3)CC1,-0.64
Cc1ccc2oc(C(=O)Nc3nnc(CC(C)C)s3)c(C)c2c1,-1.3
Cc1ccc(SCCC(=O)OCn2nnc3ccccc3c2=O)cc1,0.72

# Next compounds follow.
Kir21 inh,canonical_smiles
-0.08,O=C(NCCCN=C1NS(=O)(=O)c2ccccc21)c1ccncc1
2.8,Cc1cc(Cl)ccc1OCC(=O)NNC(=O)c1cccnc1
1.6,O=C(NCc1ccc2c(c1)OCO2)c1nc(Cn2ccc([N+](=O)[O-])n2)no1
-1.7,CC(C)CNc1nc(S(=O)(=O)c2ccccc2)c(Cl)s1
-0.32,CN(Cc1ccc(F)cc1)Cc1nc(-c2ccccc2)no1
-1.9,Cc1ccc(OCCNC(=O)c2cccc(Oc3ccc(C(F)(F)F)cc3[N+](=O)[O-])c2)cc1
-1,CCOC(=O)c1ccc(NC(=O)Nc2ccc(S(N)(=O)=O)cc2)cc1
0.82,CCOc1ccccc1N(C(=O)c1snc(C(N)=O)c1N)C(C(=O)NCC1CCCO1)c1ccc2ncccc2c1 (stereo unspecified)
2.5,COc1ccccc1Oc1ccc(S(=O)(=O)NCc2ccccn2)cc1
-1.2,O=C(CCS(=O)(=O)Cc1ccccc1)N1CCN(Cc2ccccc2)CC1
0.49,Cc1[nH]c2ccccc2c1/C=C/c1nc2ccccc2c(=O)[nH]1
-1.4,CN(CCCNC(=O)C1CCN(S(=O)(=O)c2cccc3nsnc23)CC1)Cc1ccccc1
0.19,CCCc1c(NC(=O)Nc2ccc(Cl)cc2Cl)cnn1-c1ccccc1
0.39,Cc1cccc2cc(CN(CCN3CCOCC3)C(=O)Nc3ccccc3F)c(=O)[nH]c12
0.44,COc1ccc(C(C(=O)NC2CCCCC2)N(C(=O)Cc2c[nH]c3ccccc23)c2ccc(NC(C)=O)cc2)cc1OC (stereo unspecified)
0.69,C=CCNC(=O)CN(c1cc(Cl)ccc1OC)S(=O)(=O)c1ccc(C)c([N+](=O)[O-])c1
-0.31,C=CCn1c(SCC(=O)C(C)(C)C)nnc1-c1cccs1
-0.67,Cc1cccc(OCC(=O)Nc2ccc(NC(=O)c3ccccc3)cc2)c1
0.29,COc1ccc([N+](=O)[O-])cc1NC(=O)Cc1ccc(C)cc1
0.47,NNC(=O)CNS(=O)(=O)c1ccc([N+](=O)[O-])cc1

# New compounds follow:
Kir21 inh,canonical_smiles
-0.49,c1cnc(NC2CCCCCC2)nc1
-1.2,Cc1cccc2cc(CN(CC3CCCO3)C(=S)Nc3ccccc3)c(=O)[nH]c12 (stereo unspecified)
0.1,O=C(NC(=S)NNC(=O)c1ccccc1O)c1ccc([N+](=O)[O-])cc1
-0.01,CCO[C@H]1OC(C(N)=O)=C[C@@H](c2coc3ccccc3c2=O)[C@@H]1CCCO
2.2,C[C@]1(C2CCCC2)Cc2cc(OCC(=O)O)c(Cl)c(Cl)c2C1=O
0.31,COC(=O)c1nc2n(n1)C(c1cccc(Cl)c1)C1=C(CCCC1=O)N2 (stereo unspecified)
0.4,O=C(COc1ccc2cc(Br)ccc2c1)N1CCCC1
0.14,O=C1Nc2ccc(NS(=O)(=O)c3cccs3)c3cccc1c23

# A draw from above in order of molar mass, low to high.
Kir21 inh,canonical_smiles
-0.49,c1cnc(NC2CCCCCC2)nc1
0.14,O=C1Nc2ccc(NS(=O)(=O)c3cccs3)c3cccc1c23
0.4,O=C(COc1ccc2cc(Br)ccc2c1)N1CCCC1
0.1,O=C(NC(=S)NNC(=O)c1ccccc1O)c1ccc([N+](=O)[O-])cc1

# Assay outcomes: PubChem, Johns Hopkins Ion Channel Center

# The list is partial; most or all hits stand in other tables.
